From PubChem BioAssay
Cruzain inh Det: inhibitors of Trypanosoma cruzi cruzain with detergent; Potency, µM, for inactives: max response, negative = inhibition, usual class: inhibitors; purified cruzain, Z-FR-AMC fluorescence, 0.01% Triton; P25779; actives 0.43% (n = 200,000); AID 1478; active means well fitted curve in the direction sought with a large enough effect; inconclusive means small, poorly fitted or top-dose-only effect, or another doubt; inactive means no such curve, though single readings can be large; an effect the other way counts as inactive or inconclusive;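 further: plate controls were neutral wells for no effect and buffer without enzyme for full effect; nearly all actives have a fitted effect of over 40% in size; top concentration of the series not given in the record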
Target sequence (P25779 123-467 limits assumed): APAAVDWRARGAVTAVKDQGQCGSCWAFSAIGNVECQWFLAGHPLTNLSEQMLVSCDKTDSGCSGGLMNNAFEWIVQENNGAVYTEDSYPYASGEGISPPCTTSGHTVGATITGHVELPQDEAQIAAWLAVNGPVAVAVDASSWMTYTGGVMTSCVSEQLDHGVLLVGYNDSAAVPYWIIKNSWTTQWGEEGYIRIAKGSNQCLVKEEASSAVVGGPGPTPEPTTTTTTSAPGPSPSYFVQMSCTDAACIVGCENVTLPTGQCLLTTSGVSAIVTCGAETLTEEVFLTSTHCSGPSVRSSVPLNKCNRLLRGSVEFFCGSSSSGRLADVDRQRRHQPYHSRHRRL
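Cysteine protease activity tested under reducing, mildly acidic conditions (100 mM sodium acetate pH 5.5, 5 mM DTT) plus 0.01% Triton X-100. Cruzain 1.5 nM; substrate Z-FR-AMC 2 uM; 15 min compound preincubation at room temperature.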
SARS PLpro yeast: SARS-CoV PLP inhibition in yeast. actives 0.19% (n = 330,000). Potency, µM (doses to about 32.9 µM), without a hit: at the highest dose activity, positive = growth rescue. S. cerevisiae expressing SARS-CoV PLpro, growth rescue; control for the full effect not named in the record; further: 0% is about no effect; nearly all actives have a fitted effect of over 55% in size; growth read by luminescence after 48 h
NS1 function inh: blocks influenza NS1 protein function | S. cerevisiae slowed by influenza A NS1, growth recovery by OD600 | Potency, µM (highest dose often 46.1 µM), without a hit: at the highest dose activity, positive = more growth | actives 0.4% (n = 270,000) | AID 2326; further: actives are rising curves; nearly all actives have a fitted effect of over 50% in size
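Read-out: OD600 growth recovery of NS1-expressing budding yeast. Cells grown overnight at 30C in -URA glucose medium, washed, resuspended and diluted 1:100 in 2% galactose assay medium, pH 6.0. Same strain lacking NS1 served as positive control.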
RE007 growth inh: less growth of the S. pombe RE007 Vpr strain. S. pombe RE007 Vpr strain, BacTiter-Glo ATP luminescence, 24 h; control for the full effect not named in the record. Potency, µM (titrated, usually from 92.2 µM), for inactives: top-dose activity change, negative = less growth. actives 0.21% (n = 360,000); active = well fitted falling curve with a large enough effect; inconclusive = small, poorly fitted or top-dose-only effect; inactive = no such curve, though single readings can be large or run the other way;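 further: on the % scale 0 is the no-effect control and ±100 the full control effect; nearly all actives have a fitted effect of over 50% in size; the assay follows cell death caused by Vpr and the record does not say whether a fall means rescue or toxicity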
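Fission yeast strain RE007, carrying one chromosomally integrated HIV-1 vpr copy, was seeded at OD 0.01 in PMG+AL medium with 23 nL pinned compound. After 24 h at 30 °C and 99% humidity, viability was read by BacTiter-Glo luminescence.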
2A StopGo: lowers the luciferase signal of an FMDV 2A StopGo reporter | Potency, µM (top dose mostly 57.9 µM), inactives show at the top dose signal change, negative = less light | AID 1159524 | actives 1.2% (n = 410,000) | human cells with a luciferase reporter of 2A StopGo recoding; control for the full effect not named in the record; active = well fitted falling curve with a large enough effect; inconclusive = small, poorly fitted or top-dose-only effect; inactive = no such curve, though single readings can be large or run the other way; tested in HEK293T cells; further: on the % scale 0 is the no-effect control and ±100 the full control effect; nearly all actives have a fitted effect of over 45% in size; luciferase light after 4 h
Lassa entry inh: blocks Lassa virus binding to or entry into cells; Lassa virus pseudotype entry inhibition, cell reporter; control for the full effect not named in the record; Potency, µM (highest dose often 37.9 µM), inactives show at the top dose activity change, negative = inhibition, hits mostly inhibitors; actives 1.2% (n = 300,000); active means well fitted inhibition curve with a large enough effect; inconclusive means small, poorly fitted or top-dose-only effect, or effect the other way; inactive means flat fitted curve, though single readings scatter; tested in HEK293 cells; further: on the % scale 0 is the no-effect control and ±100 the full control effect; nearly all actives have a fitted effect of over 50% in size; luciferase read-out
MARV entry inh: Marburg virus entry inhibition. Potency, µM (highest dose often 37.8 µM), for the others: at the highest dose activity change, negative = inhibition, most hits filed as inhibitors. actives 1.8% (n = 300,000). Marburg virus pseudotyped entry inhibition, cell reporter; control for the full effect not named in the record; about a third of the inactives were read at about 46 µM; active = well fitted inhibition curve with a large enough effect; inconclusive = small, poorly fitted or top-dose-only effect, or effect the other way; inactive = flat fitted curve, though single readings scatter; tested in HEK293 cells; about a fifth of its hits are not listed in these tables; further: on the % scale 0 is the no-effect control and ±100 the full control effect; luciferase read-out
Cruzain noTriton: inhibitors of Trypanosoma cruzi cruzain without detergent; purified cruzain, Z-FR-AMC fluorescence, no detergent; actives 2.3% (n = 200,000); Potency, µM, for the others: max response, negative = inhibition, hits mostly inhibitors; active means well fitted curve in the direction sought with a large enough effect; inconclusive means small, poorly fitted or top-dose-only effect, or another doubt; inactive means no such curve, though single readings can be large; an effect the other way counts as inactive or inconclusive;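 further: plate controls were enzyme without inhibitor for no effect and buffer without enzyme for full effect; nearly all actives have a fitted effect of over 40% in size; top concentration of the series not given in the record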
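Detergent-free condition (0.00005% Triton X-100) in acetate buffer pH 5.5 with DTT. 1.5 nM enzyme and compound were pre-mixed 15 min, then 2 uM Z-FR-AMC substrate added; reaction progress from fluorescence change between first and third reads (60 s).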
* = called active by the depositor; ? = inconclusive; · = not tested or not shown; [ ] = remark or other dose. Unless noted, the call rests on the fitted dose curve; in most records, active means well fitted rising curve with a large enough effect; inconclusive means small, poorly fitted or top-dose-only effect; inactive means no such curve, though single readings can be large or run the other way. Potency means the concentration at half of the fitted maximal effect.

SMILES | Cruzain inh Det | SARS PLpro yeast | NS1 function inh | RE007 growth inh | 2A StopGo | Lassa entry inh | MARV entry inh | Cruzain noTriton
CCOC(=O)c1c(NC(=O)Nc2ccc(C)cc2)sc2c1CCN(C)C2 | · | 0% | -8% | 4% | 0% | 1% | -15%[14.2 µM] | ·
O=C(CN(C(=O)c1csnn1)c1cccc(Cl)c1)NC1CCCC1 | · | 12% | 1% | 9% | -1% | ? | -20%[46.1 µM] | ·
Cc1cc2cc(CNS(=O)(=O)N(C)C)ccc2[nH]1 | -1.3% | 14% | 17% | 6% | -10% | · | · | 1%
COc1cc(OC)c(/C=C2\SC(=O)N(CC(=O)Nc3ccccc3F)C2=O)c(OC)c1 | · | -5% | 23% | -9% | ? | · | · | ·
COc1ccc(NC(=O)C2CCN(S(C)(=O)=O)CC2)cc1Cl | -0.3% | -6% | 1% | 12% | · | 12% | -5% | 6%
COc1ccc2nc(N3C(=O)CC(Cc4ccc(C)cc4)C3=O)sc2c1 (stereo not drawn) | -4.4% | -20% | 8% | -4% | -17% | -3% | ? | -10%
OCC[C@@H]1C[C@H](O)[C@@H](O)[C@@]2(Cc3ccccc3CCO2)O1 | · | -4% | -2% | 7% | 0% | · | · | ·
Cc1cn(C2CCCCC2)c(=O)[nH]c1=O | · | · | · | 5% | -2% | -2% | 20% | ·
O=C(Nc1ccccc1)N1CCN(Cc2ccc(Cl)cc2)CC1 | · | -1% | -7% | -1% | 1% | · | · | ·
COc1ccc(S(=O)(=O)N2CCN(CC(O)COc3ccc(CC#N)cc3)CC2)cc1OC (stereo not drawn) | · | 7% | -2% | 10% | -13% | · | -2%[46.1 µM] | ·
Cc1ccc(N=Cc2sc(O)c3ccccc23)cc1 | -10% | -3% | -5% | 4% | 34%[activator] | ? | ? | 1%
O=C(CN1C(=O)c2ccccc2C1=O)N1CCN(C2c3ccccc3-c3ccccc32)CC1 | -6.8% | -1% | -8% | -3% | -18% | -3% | ? | 2%
CCOc1ccc(NC(=O)CSc2nc3ccccc3c(=O)n2CCNC(C)=O)cc1 | 5.9% | 1% | 3% | 0% | 1% | -6% | ? | 12%
COc1ccc(NC(=O)c2sc3nc4c(cc3c2N)CN(C(C)C)CC4)c(OC)c1 | -9.1% | · | · | · | ? | 3%[46.1 µM] | -1%[46.1 µM] | -3%
O=C(CSc1nnc(-c2ccncc2)n1-c1ccccc1)N1CCN(c2ccc(Cl)cc2)CC1 | 0.1% | 8% | 4% | 3% | ? | 12% | -1% | 21%
O=C(NCc1ccccn1)C1CCN(Cc2cccc(OCc3ccccc3)c2)CC1 | 0.0% | 0% | -11% | 0% | -16% | -14% | ? | -12%
CCC(OCC(O)CN1CCN(CCN2C(=O)c3cccc4cccc(c34)C2=O)CC1)c1ccccc1 (stereo not drawn) | -5.5% | -23% | -10% | 2% | 28µM* | ? | ? | -2%
Cn1cnnc1SCC(=O)NNC(=O)COc1ccc(Br)cc1 | · | -1% | 3% | 7% | 7% | 4% | 24%[46.1 µM] | ·
COc1ccccc1N(C)S(=O)(=O)c1ccc(C(=O)OCC(=O)N(C(C)C)C(C)C)cc1 | · | 4% | -4% | -10% | -22% | -28%[46.1 µM] | 21%[46.1 µM] | ·
Cc1ncc(C[n+]2csc(C)c2C)c(N)n1 | · | 1% | -2% | 74% | -19% | -17% | 22%[46.1 µM] | ·
Cc1ccc(C(=O)COC(=O)CCc2nc3ccccc3[nH]c2=O)cc1C | -0.1% | 6% | 1% | 7% | 14% | 0% | -9% | 3%
Cc1cc2nc(C(F)(F)F)[nH]c(=O)n2n1 | 6.2% | ? | -8% | 29% | -4% | -2% | -6% | 2%
Cc1ccc(NC(=O)CCS(=O)(=O)c2ccc(Br)s2)c(Br)c1 | -1.2% | · | · | · | -24% | -10%[46.1 µM] | 2%[46.1 µM] | 9%
O=C(O)c1cccc(Cn2cc(Cl)cn2)c1 | 3.9% | -2% | -1% | 30% | 7% | 13% | 13% | -9%
O=C(COc1ccccc1)NNC(=O)c1cc2ccccc2o1 | -5.4% | 3% | 4% | -20% | -11% | 3% | ? | 5%

(listing goes on)
SMILES | Cruzain inh Det | SARS PLpro yeast | NS1 function inh | RE007 growth inh | 2A StopGo | Lassa entry inh | MARV entry inh | Cruzain noTriton
CN(C(=O)CC1C(=O)NCCN1Cc1ccc(F)cc1)C1CCOCC1 (stereo not drawn) | · | 1% | 1% | 5% | -1% | -12% | 15% | ·
COC(=O)c1cc(OC)c(OC)cc1NC(=S)N1CCN(c2ccccc2)CC1 | 6.3% | -7% | 7% | 9% | · | ? | ? | ?
Cc1ccc2cc(C(c3nnnn3Cc3ccccc3)N3CCc4ccccc43)c(=O)[nH]c2c1 (stereo not drawn) | -0.1% | 4% | 0% | 0% | 23% | ? | ? | ?
Cc1ccccc1NS(=O)(=O)c1ccc(C(=O)NCC(C)(C)N2CCOCC2)cc1 | · | -4% | · | -7% | -29% | -15%[46.1 µM] | -19% | ·
Cn1nc(-c2ccccc2)c(CO)c1Sc1ccccc1 | · | -9% | · | -8% | ? | ? | ? | ·
O=C(c1ccc2c(c1)N(Cc1ccccc1)C(=O)c1ccccc1S2=O)N1CCC(Cc2ccccc2)CC1 (stereo not drawn) | 1.4% | · | · | · | ? | ? | ? | -9%
CN1/C(=C/C=C(/C#N)C(N)=O)C(C)(C)c2ccccc21 | -12% | -1% | -17% | -14% | -27% | -4% | ? | -27%
CN(CC(=O)Nc1cccc(F)c1)C(=O)CSc1ccccc1 | · | -4% | · | -22% | -10% | -28% | 6% | ·
Cc1ccccc1-n1cc(-c2ccccc2)nc1SCC(=O)Nc1ccc(F)cc1 | -3.2% | · | · | · | 11% | -21%[46.1 µM] | · | ?
CC1=NN(/C(=N\c2nnc(C)s2)Nc2ccccc2)[C@H](c2cccc3ccccc23)S1 | -8.6% | -29% | 20% | -17% | ? | ? | ? | 19%
COC(=O)c1ccc(/C=N/NC(=O)C2CC(=O)N(c3ccc(F)cc3)C2)cc1 (stereo not drawn) | · | 14% | 11% | 6% | -23% | · | · | ·
Cc1ccc(NCC(=O)N/N=C\c2ccc([N+](=O)[O-])o2)cc1 | -2.1% | 29% | -14% | -16% | · | -29% | ? | 0%
CC(=O)N1CCN(C(=O)CN2C(=O)NC(C)(c3ccc4ccccc4c3)C2=O)CC1 (stereo not drawn) | · | 0% | · | 11% | -17% | 2% | 1% | ·
C=CCNc1oc(-c2cccs2)nc1C#N | ? | -3% | 2% | 2% | 0% | 18% | -11% | -3%
COc1cc(NC(=O)CCc2nnc3ccc(N4CCCCC4)nn23)cc(OC)c1OC | · | 1% | 8% | 14% | -6% | 16%[46.1 µM] | 15%[46.1 µM] | ·
Cc1ccccc1CN1C(=O)CN=C(c2ccccc2)c2cc(Cl)ccc21 | -8.3% | · | · | · | ? | ? | · | 1%
O=[N+]([O-])c1cccc(-c2ccn[nH]2)c1 | · | -2% | -4% | -9% | 1% | · | · | ·
Cc1cccc(NC(=O)Cc2nc(-c3c[nH]c(C(=O)N4CCCC4)c3)cs2)c1 | · | -1% | · | 2% | 35µM* | ? | ? | ·
Cc1csc(=O)n1CC(=O)OC(C)C(=O)Nc1ccc(F)c(F)c1F (stereo not drawn) | · | 1% | · | -12% | -9% | 11% | 5%[46.1 µM] | ·
Cc1[nH]c2ccccc2c1C(c1ccccn1)N1CCC(C(N)=O)CC1 (stereo not drawn) | 2.5% | -1% | -8% | 2% | ? | -17% | -1% | 0%
COc1ccc(C(=O)/C=C2\Sc3ccccc3N2C)cc1 | · | -1% | 3% | -10% | -5% | ? | ? | ·
CCCCCCNC(=O)c1cn(CC)c2cc(N3CCN(C)CC3)c(F)cc2c1=O | · | 0% | 5% | -16% | -21% | · | · | ·
COc1ccc(CC(=O)OC2CCCN(C)C2)cc1 (stereo not drawn) | · | 1% | -5% | 23% | 10% | -1%[46.1 µM] | 11%[46.1 µM] | ·
CCOc1ccccc1C(=O)Nc1ccc(S(=O)(=O)Nc2ncccn2)cc1 | -5.0% | · | · | · | 5% | 12%[46.1 µM] | 6%[46.1 µM] | 10%
CCCCn1c(-c2cccnc2)nc2cc3[nH]c(=O)c(C(C)C)nc3cc21 | · | 17% | 10% | 1% | -26% | · | · | ·

Next part
SMILES | Cruzain inh Det | SARS PLpro yeast | NS1 function inh | RE007 growth inh | 2A StopGo | Lassa entry inh | MARV entry inh | Cruzain noTriton
Nc1c(Cl)c(Cl)nc(C(=O)OCC(=O)N2CCCC2=O)c1Cl | · | 0% | · | -11% | -11% | -9%[46.1 µM] | ? | ·
COc1ccc(OC)c(NS(=O)(=O)c2cc3c4c(c2)CCN4C(=O)CC3)c1 | · | 4% | · | -5% | 117%[activator] | 12% | 4% | ·
C=CCc1c(C)nc(C)nc1N/N=C/c1ccc(F)cc1 | -4.9% | 3% | -8% | -11% | -11% | 15% | 3%[46.1 µM] | 0%
O=c1c2c(-c3cccs3)csc2[nH]c(=S)n1-c1ccccc1 | -4.7% | -4% | ? | 7% | 2% | 13% | ? | 3%
O=C(COc1ccccc1)NC1CCCc2ccccc21 (stereo not drawn) | -3.0% | 22% | 0% | -9% | 12% | -7% | 0% | 0%
O=C(N/N=C/c1ccc(-c2ccccc2)o1)c1ccccc1O | · | -2% | 2% | 5% | -10% | 16%[46.1 µM] | 16%[46.1 µM] | ·
Cc1cc(Cl)ccc1OCC(=O)NC(=S)Nc1ccc(Cl)cn1 | · | -2% | 16% | 6% | 16% | · | · | ·
COc1ccc(C(=S)N2CCCCCC2)cc1 | 14µM* | 28% | 7% | -6% | 23% | -12% | 7% | -2%
CN(C)/C=C/C(=O)c1cc(N2CCOCC2)ccc1[N+](=O)[O-] | · | 0% | · | -19% | -2% | -7% | 2%[46.1 µM] | ·
Cc1ccc(Cn2ccc(C3CC3)n2)cc1 | · | 1% | · | 2% | 0% | 5%[46.1 µM] | ? | ·
Cc1ccc2occ(C(c3nnnn3Cc3ccccc3)N3CCOCC3)c(=O)c2c1 (stereo not drawn) | 0.2% | -3% | -45% | 14% | -9% | -1% | -10% | 13%
